Bioassay records: PubChem BioAssay, several laboratories
E coli growth: E. coli growth inhibition. Escherichia coli growth, OD600, 23 h; active compounds read low. OD600 absorbance (concentration not given with the values). AID 1053175. hit rate 0.21% among 330,000;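 active = OD600 absorbance below the run mean of sample wells minus 3.6 SD, in any replicate, cut at about 0.56 in these data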;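 also: stock transfer was 300 nL into about 60 µL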
LANA-H2A inh: blocks KSHV LANA binding to histone H2A/H2B | cell-free LANA-H2A/H2B peptide, fluorescence polarization | inhibition, % (concentration not given with the values) | hit rate 0.6% among 320,000; in the data active = inhibition mostly above about 10%, no sharp cut-off; inactive = mostly below about 6.7%;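 also: stock transfer was 7.5 nL into about 10 µL; 0% = median of vehicle wells and 100% = median of positive control wells; one replicate is shown; the record names a cut of 25% in any replicate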
UCH37 DUB inh: human UCH37 deubiquitinating enzyme inhibition; purified proteasome/UCH37, Ub-AMC cleavage fluorescence; Q9Y5K5; hit rate 0.33% among 330,000; inhibition, % (concentration not given with the values);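 active = mean of two replicates above 20%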;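 also: 0% = compound-free wells with enzyme and 100% = wells lacking proteasome; stock transfer was 100 nL into about 20 µL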
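Material: Human UCH37 enzyme supplied as purified proteasome complex | Schedule: 30 min compound-proteasome preincubation then 25 min substrate reaction, room temperature | Detection: AMC fluorescence from Ub-AMC cleavage, excitation 355 nm, emission 460 nm | Benchmarks: Wells without proteasome as full block, compound-free enzyme plus substrate as uninhibited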
FGF22 binding: shifts melting point of recombinant human FGF22 | Q9HCT0 | calls only at 9.99 µM | recombinant FGF22 thermal shift, SYPRO orange fluorescence; percent of sucrose octasulfate shift, DMSO zero | hit rate 1.5% among 340,000;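 active = melting point raised past a set limit in the mean and every replicate; inconclusive = no clear call; three in four hits are not shown here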
Target sequence (Q9HCT0 whole entry, looked up): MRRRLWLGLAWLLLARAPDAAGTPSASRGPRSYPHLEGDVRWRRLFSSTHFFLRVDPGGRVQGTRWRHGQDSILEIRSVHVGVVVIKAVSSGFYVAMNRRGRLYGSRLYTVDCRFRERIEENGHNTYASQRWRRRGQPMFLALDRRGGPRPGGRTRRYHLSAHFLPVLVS
Beta2AR agonist: activates human beta-2 adrenergic receptor causing internalization | hit rate 0.43% among 340,000 | response, % (concentration not given with the values) | Am2.2-beta2AR cells, FAP receptor internalization, flow cytometry; reference of the scale not given here | P07550;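 active = response above a set limit, near 3 SD of response in nonfluorescent compounds, cut at about 42% in these data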;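 also: stock transfer was 100 nL into about 11 µL; a reference agonist was the positive control; negative values mostly stem from fluorescent compounds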
ALR inh: blocks human ALR sulfhydryl oxidase activity. hit rate 3.8% among 290,000. purified ALR, DTT oxidation, H2O2 HRP-luminol luminescence. inhibition, % (no concentration beside the values);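 active = mean and each replicate at 75% or more; inconclusive = only one of the two met; inactive = neither met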;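 also: stock transfer was 7.5 nL into about 7.5 µL; 0% = neutral wells and 100% = wells with inactivated enzyme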
Target sequence (P55789 whole entry, looked up): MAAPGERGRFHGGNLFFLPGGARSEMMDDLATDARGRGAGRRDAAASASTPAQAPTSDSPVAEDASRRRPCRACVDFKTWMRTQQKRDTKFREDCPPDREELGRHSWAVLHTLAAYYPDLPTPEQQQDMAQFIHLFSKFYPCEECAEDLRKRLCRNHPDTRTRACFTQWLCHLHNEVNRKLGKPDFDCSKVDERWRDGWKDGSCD
HNF4A DNA FP: change in binding of human HNF4 alpha to DNA; activity change, % at 10 µM; AID 1224865; HNF4a-FITC DNA binding, fluorescence polarization, 1 h; hit rate 0.3% among 360,000; in the data active = activity change above about 30%, passing the limit was not always enough;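 also: controls were the assay level and a saturating level of protein; the project sought stronger binding though the title names inhibitors; some compounds called inactive have numbers as strong as hits; positive values seem to mean higher polarization but the record does not say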
Target sequence (P41235 whole entry, looked up): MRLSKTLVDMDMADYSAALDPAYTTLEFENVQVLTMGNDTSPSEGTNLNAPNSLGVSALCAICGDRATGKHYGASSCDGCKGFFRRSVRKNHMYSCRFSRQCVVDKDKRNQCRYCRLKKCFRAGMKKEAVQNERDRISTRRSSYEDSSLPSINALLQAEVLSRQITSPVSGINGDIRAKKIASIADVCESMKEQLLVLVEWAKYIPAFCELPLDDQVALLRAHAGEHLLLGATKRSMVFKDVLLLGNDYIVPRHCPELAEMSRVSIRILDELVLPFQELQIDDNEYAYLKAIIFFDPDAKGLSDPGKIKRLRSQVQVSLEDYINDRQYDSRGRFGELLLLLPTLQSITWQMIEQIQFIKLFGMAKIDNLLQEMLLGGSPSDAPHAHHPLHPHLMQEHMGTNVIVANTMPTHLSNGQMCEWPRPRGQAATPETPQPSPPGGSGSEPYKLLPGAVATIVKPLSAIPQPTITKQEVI
Numbers without * were called inactive; i = inactive; ? = inconclusive; . = no result given. A portion of the library; the hit share may differ from the screen's.

SMILES	E coli growth	LANA-H2A inh	UCH37 DUB inh	FGF22 binding	Beta2AR agonist	ALR inh	HNF4A DNA FP
O=[N+]([O-])c1cccc2ccc(/C=C/c3cccc(Br)c3)nc12	0.74	-9.2	4.0	.	-9	-3	2.6
O=[N+]([O-])c1cc(S(=O)(=O)N2CCCC2)ccc1NCCCN1CCOCC1	0.69	1.1	4.6	i	-2	.	-0.7
Cc1cc(Br)ccc1NC(=O)c1sc2ncn(CC(=O)N3CCN(c4ccccn4)CC3)c(=O)c2c1C	0.72	-1.0	-2.1	i	0	-7	-4.5
COc1cccc(CNC(=O)C2CCN(S(=O)(=O)N3CCC(C)CC3)CC2)c1	0.64	-0.4	2.0	i	-1	-2	4.8
CCn1c(SCC(=O)n2nc(C)cc2C)nnc1-c1ccc2c(c1)OCO2	0.65	-1.9	-1.8	.	-2	-13	-1.0
O=C(CSc1nncc2ccccc12)Nc1ccc(F)cc1	0.66	-0.2	1.7	i	-9	-7	0.9
CC1(C)CC(=O)C=C(c2ccc3[nH]ccc3c2)C1	0.65	-6.4	2.9	i	-13	6	0.6
O=C(c1cc(S(=O)(=O)N2CCOCC2)ccc1F)N1CCc2ccccc21	0.63	-1.9	2.7	i	-6	-8	4.4
COc1ccc(Cl)cc1NC(=O)CN(C)C(=O)c1cc2c(F)cccc2s1	0.64	2.4	2.8	i	-4	1	-1.4
COc1ccc(Nc2nc(N)nc(CN3CCN(c4ccccn4)CC3)n2)cc1	0.77	-6.9	5.4	.	-4	.	-3.1
COc1ccc(-n2nc(C(=O)NCC(=O)NCCCN3CCOCC3)c3ccccc3c2=O)cc1OC	0.67	-13	7.6	i	3	2	1.0
Cc1ccc(NS(=O)(=O)c2ccccc2)c2c1CC(C)(C)O2	0.7	1.0	0.2	.	4	-1	-0.7
CC[N+]1(C)CCC(O)(/C=C/c2ccccc2)C(C(=O)/C=C/c2ccccc2)C1 (stereo unspecified)	.	.	.	i	10	.	1.9
O=C(COC(=O)c1ccco1)NCc1ccccc1Cl	0.72	-6.0	1.9	i	2	24	-2.2
O=C(CCCN=C1NS(=O)(=O)c2ccccc21)OCc1ccc(F)cc1	0.69	1.3	0.4	i	1	-7	-1.9
COc1ccc(NS(=O)(=O)c2cc(NC(=O)c3ccc(F)cc3)ccc2OC)cc1	0.72	-0.7	1.3	.	2	-5	2.6
COc1ccc(N2CCN(c3c(S(=O)(=O)c4ccccc4)cnc4ccc(OC)cc34)CC2)cc1	.	-2.1	.	.	14	-5	2.1
CCCSc1ccc([C@H]2N[C@@](C)(C(=O)OC)[C@H]3C(=O)N(CC)C(=O)[C@@H]23)cc1	.	-5.5	-1.3	i	-12	-8	-3.4
CCC(OC(=O)c1cccs1)C(=O)NCc1ccc2c(c1)OCO2 (stereo unspecified)	0.66	-4.8	-0.5	.	-2	-12	-1.3
CC1(C)CC(=O)C(C=Nc2ccccc2)=C(O)C1	0.72	-0.7	15	.	-19	9	1.8
Cc1ccc(CNC(=O)CCCN2C(=S)NC(C)(C)CC2C)cc1 (stereo unspecified)	0.71	0.5	5.5	i	-9	.	1.5
Cc1nn(CCCC(=O)Nc2nccs2)c(C)c1[N+](=O)[O-]	0.69	6.0	2.9	i	0	3	1.4
O=C(Cn1cnc2ccccc21)Nc1ccc2c(c1)OCCCO2	0.61	-0.8	3.7	i	2	-5	8.8
CC(NC(=O)C1CCCN(C(=O)N(C)C)C1)c1ccccc1 (stereo unspecified)	0.74	-0.3	-1.0	.	1	-5	-1.2
CCN(CC)C(=O)CSc1nc(O)c(Cc2ccccc2)c(=O)n1-c1ccccc1	0.69	-2.3	2.3	.	-8	43	0.9
COc1ccc(-c2cc(CCCC(=O)NCCc3ccc(OC)cc3OC)no2)cc1	0.76	4.3	1.3	.	-7	-13	3.5
CC(C)S(=O)(=O)c1csc(C(=O)NNC(=O)Nc2ccccc2)c1Cl	0.7	-2.7	6.5	i	4	14	4.5
O=C(COC(=O)CNC(=O)c1ccc(Cl)cc1Cl)NNC(=O)c1ccccc1F	0.68	-0.5	1.0	i	0	-5	-0.9
COc1ccc2c(c1)c(C(C)=O)c(C)n2-c1ccccc1OC	0.68	1.5	0.8	i	-2	8	-1.6
COC(=O)c1[nH]c2ccc(F)cc2c1NC(=O)CCN1CC(C)OC(C)C1 (stereo unspecified)	0.71	3.3	-11	.	0	.	-3.2
Cc1ccc(S(=O)(=O)n2nc(-c3ccc(Cl)cc3)nc2NCc2ccco2)cc1	0.7	-1.5	3.6	.	-13	0	4.6
CCOc1ccc(NC(=S)C(C#N)=C2N(C)c3ccccc3N2C)cc1	0.63	3.5	11	i	-7	14	-2.0
CC(=O)C[C@H](O)CC(=O)[C@@H]1OC(=O)[C@@H](C)C/C=C\Cc2ccccc21	0.7	-1.8	4.0	i	4	.	-1.0
Cc1ccc(-c2nnc3sc(C4COc5ccccc5O4)nn23)cc1 (stereo unspecified)	0.7	3.1	1.9	i	2	-2	-2.7
COc1cc(C2C(C(=O)c3ccc(C)o3)=C(O)C(=O)N2Cc2cccnc2)ccc1O (stereo unspecified)	0.77	-18	-0.4	.	6	.	1.3
Cc1cc(C)cc(Nc2cc(C)nc3nc(C)nn23)c1	0.72	-1.1	6.3	i	3	-6	4.8
N#Cc1nc(-c2cccc3ccccc23)oc1NCCN1CCCCC1	0.64	-0.7	i	.	12	14	-2.7
CC(=O)NC(Cc1ccccc1)C(=O)N1CCN(C(=S)NCC(C)C)CC1 (stereo unspecified)	0.65	2.3	2.0	i	-4	-2	0.8
CC(=O)c1cccc(CN2CCN(C3CCCC3)C(CCO)C2)c1 (stereo unspecified)	0.69	-4.2	2.7	i	-12	-3	0.4
O=CNC(Cc1ccccc1)C(=O)O (stereo unspecified)	0.68	-0.8	1.7	.	2	.	-1.7
C/C(=N\NC(=O)C1(C)CC1(Br)Br)c1cccc(NC(=O)C2CCC2)c1 (stereo unspecified)	.	2.4	.	i	12	-1	0.9
Cc1ccc(S(=O)(=O)Nc2ncc(C(F)(F)F)cc2Cl)cc1	0.69	-1.4	4.0	i	4	3	5.0
COc1ccc(C(=O)CSc2nnc(-c3ccco3)o2)cc1	0.68	1.4	1.3	i	-4	20	1.9
CCOC(=O)N1CCN(C(=O)C2CCN(S(=O)(=O)c3cc(Cl)ccc3OCC)CC2)CC1	0.68	-2.5	3.5	i	-7	-2	5.2
Cn1cc(CN2CCC(n3nccc3NC(=O)c3ccccc3Cl)CC2)c2ccccc21	0.69	-2.3	4.7	i	19	-1	1.9
CCOc1ccc(NC(=O)CSc2ncc(-c3ccc(F)cc3)n2Cc2ccco2)cc1	0.75	-2.4	3.3	.	-7	47	-0.7
CCCC(C)NC(=O)c1c2c(nc3ccccc13)CCC2 (stereo unspecified)	0.7	-4.3	-0.6	i	2	-4	-7.0
CC(C)N1C(=O)C2C(C(=O)NC3CCCCC3)C3C=CC2(O3)C1C(=O)NC1CCCCC1 (stereo unspecified)	0.68	-3.9	4.8	.	-7	.	4.0
O=C(NCCCN1CCCCC1)c1ccc(CS(=O)c2ccc(Cl)cc2)o1 (stereo unspecified)	0.68	-4.2	4.0	i	8	-6	-0.6
O=C(OCCOc1ccc(F)cc1)c1ccc(S(=O)(=O)N2CCCC2)cc1	0.68	.	4.4	i	-2	.	4.9
O=C(NCCc1ccccc1)/C(=C\c1ccc([N+](=O)[O-])cc1)NC(=O)c1ccco1	0.68	-2.7	9.7	i	3	1	7.2
CN(CC(=O)O/N=C(\N)c1ccc(Br)cc1)S(=O)(=O)c1ccccc1	0.73	0.5	-0.1	i	.	-13	2.0
COc1ccc(/C=N/NC(=O)c2ccc(O)cc2O)cc1CSc1ccccn1	.	-1.6	.	i	-1	43	-12
CCCCc1ccc(NC(=O)N[C@H](C(=O)O)C(C)C)cc1	0.75	-0.2	-5.6	.	-1	2	-0.8
O=C(Cc1c(F)c(F)c(F)c(F)c1F)OC12CC3CC(C1)C(=O)C(C3)C2	0.69	0.1	5.6	.	5	-20	-3.7
CCn1c(=O)c2cc(S(=O)(=O)NC3CCCCC3)ccc2n(CC)c1=O	0.69	-10	5.4	.	-1	-4	-0.1
O=C(N/N=C/c1cc([N+](=O)[O-])ccc1O)C12CC3CC(CC(C3)C1)C2	.	3.8	.	i	4	-7	-4.0
O=C1CCCc2c1ccc1ccccc21	0.66	.	-35	i	-4	.	-0.9
O=C(COc1ccccc1)Nc1nnc(-c2ccco2)o1	0.68	-6.7	0.4	i	1	?	0.7
COc1cccc(CNC(=O)CCNS(=O)(=O)c2ccc(C)cc2)c1	0.68	-0.2	2.6	i	-2	0	1.4

Quoted at random: 6 records from the list, in no set order.
SMILES	E coli growth	LANA-H2A inh	UCH37 DUB inh	FGF22 binding	Beta2AR agonist	ALR inh	HNF4A DNA FP
COc1ccc(/C=N/NC(=O)c2ccc(O)cc2O)cc1CSc1ccccn1	.	-1.6	.	i	-1	43	-12
COc1ccc(C(=O)CSc2nnc(-c3ccco3)o2)cc1	0.68	1.4	1.3	i	-4	20	1.9
Cc1ccc(S(=O)(=O)Nc2ncc(C(F)(F)F)cc2Cl)cc1	0.69	-1.4	4.0	i	4	3	5.0
CCOC(=O)N1CCN(C(=O)C2CCN(S(=O)(=O)c3cc(Cl)ccc3OCC)CC2)CC1	0.68	-2.5	3.5	i	-7	-2	5.2
COc1cccc(CNC(=O)CCNS(=O)(=O)c2ccc(C)cc2)c1	0.68	-0.2	2.6	i	-2	0	1.4
CCCC(C)NC(=O)c1c2c(nc3ccccc13)CCC2 (stereo unspecified)	0.7	-4.3	-0.6	i	2	-4	-7.0

Further records.
SMILES	E coli growth	LANA-H2A inh	UCH37 DUB inh	FGF22 binding	Beta2AR agonist	ALR inh	HNF4A DNA FP
Cc1cc2nc(-c3ccc(SCC(=O)Nc4ccc(S(=O)(=O)N5CCCC5)cc4)nc3)[nH]c2cc1C	0.69	8.7	-123	.	25	-9	33
CC1=C(C(=O)Nc2ccccc2)C(c2cccs2)n2nnnc2N1 (stereo unspecified)	0.65	0.1	2.3	.	-6	14	1.2
CSc1cccc(NC(=S)N(CCCN2CCC(C)CC2)Cc2cccs2)c1	0.69	7.5	-2.0	.	0	.	3.1
O=C(OCc1ccc([N+](=O)[O-])cc1)c1ccccn1	0.67	-4.1	0.3	i	-6	-33	-4.5
CCOC(=O)CN(C(=O)CNC(=O)c1cccs1)C(C(=O)NC1CCCCC1)c1cccnc1 (stereo unspecified)	0.7	-2.2	2.1	.	-21	1	2.2
CC(=O)Nc1ccc(S(=O)(=O)NCCC(=O)Nc2ccc(C)c(Cl)c2)cc1	0.69	-0.2	3.0	i	-8	2	-2.2
Cc1cccc(C)c1NC(=O)CN(C)C(=O)c1ccc2c(=O)n3c(nc2c1)CCC3	0.66	15*	-0.8	i	1	-12	-5.3
Cc1ccc(C(=O)CCC(=O)N(C)CC(=O)Nc2c(Cl)cccc2Cl)cc1	0.7	4.6	-0.2	i	-2	-1	0.7
NC(=O)CNC(=O)c1cccc(Cl)c1	0.7	1.7	1.7	i	-7	2	0.9
CCCCC(C(=O)NCCC(C)C)N(CCCN1CCOCC1)C(=O)c1snc(C(N)=O)c1N (stereo unspecified)	0.67	2.2	-66	.	-6	1	-1.3
COc1ccccc1-c1cc(C(=O)N/N=C/c2ccc(C)s2)c2ccccc2n1	.	1.8	.	.	20	-4	-3.8
Cc1scc(C(=O)NCc2ccco2)c1-c1ccccc1	0.71	-8.7	2.5	.	8	26	3.0
CCCC(c1nnnn1Cc1ccc(OC)cc1)N1CCN(C(=O)c2ccco2)CC1 (stereo unspecified)	0.69	3.5	1.4	i	-15	8	-1.3
COc1cccc(N2CCN(C(=O)CN(C)S(=O)(=O)c3ccc4c(c3)c(=O)n(C)c(=O)n4C)CC2)c1	0.7	3.7	-2.8	i	-5	41	-3.5
